Compound activity: PubChem BioAssay, Sanford-Burnham Center for Chemical Genomics
EBI2 antag = antagonists of human EBI2 receptor | inhibition, % at 5 µM | AID 651636 | EBI2 beta-arrestin recruitment, luminescence, 7a,25-OHC stimulated | P32249 | 360,000 compounds, 0.81% hits; in the data active = inhibition above about 38%;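 also: enzyme fragment complementation signal reports receptor beta-arrestin coupling in cells; 0% = agonist plus DMSO wells and 100% = wells without agonist; some results beyond the cut were filed as inactive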
Target sequence (P32249 whole entry, looked up, the tested form may be a part): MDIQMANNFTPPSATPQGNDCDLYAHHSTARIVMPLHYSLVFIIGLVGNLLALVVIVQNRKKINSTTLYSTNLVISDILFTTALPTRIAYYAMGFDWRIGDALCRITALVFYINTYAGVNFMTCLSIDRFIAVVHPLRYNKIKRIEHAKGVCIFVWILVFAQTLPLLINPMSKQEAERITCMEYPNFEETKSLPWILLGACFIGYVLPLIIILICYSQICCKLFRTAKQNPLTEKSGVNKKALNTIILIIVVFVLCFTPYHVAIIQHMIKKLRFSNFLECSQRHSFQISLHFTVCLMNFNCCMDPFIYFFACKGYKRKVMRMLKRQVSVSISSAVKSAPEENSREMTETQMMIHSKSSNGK
APJ ag = agonists of human APJ apelin receptor. CHO-K1 APJ PathHunter beta-arrestin, luminescence; 0% DMSO wells, 100% apelin. AID 2520. P35414. activation, % at 20 µM. 330,000 compounds, 0.11% hits;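 active = activation more than six SD over the plate average, tested at 20 µM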;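 also: 0% = DMSO alone and 100% = apelin-13 at 10 nM; some results filed as inactive read as strong as hits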
Target sequence (P35414 whole entry, looked up): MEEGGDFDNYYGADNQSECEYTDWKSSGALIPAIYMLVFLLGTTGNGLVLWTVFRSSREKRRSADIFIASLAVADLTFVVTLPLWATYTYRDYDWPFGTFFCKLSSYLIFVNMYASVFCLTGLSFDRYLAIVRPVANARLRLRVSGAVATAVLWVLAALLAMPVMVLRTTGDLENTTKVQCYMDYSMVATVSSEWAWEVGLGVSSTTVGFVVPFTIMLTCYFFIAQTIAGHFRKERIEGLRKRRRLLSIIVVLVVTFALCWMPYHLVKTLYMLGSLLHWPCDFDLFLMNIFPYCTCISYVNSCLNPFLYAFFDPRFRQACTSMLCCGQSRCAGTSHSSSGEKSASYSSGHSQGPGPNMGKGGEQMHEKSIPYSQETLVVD
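Assay system: engineered CHO-K1 APJ arrestin reporter cells; Amount: 1000 CHO-K1 reporter cells seeded per well; Dosing: one dose, 20 µM compound, 1% DMSO; Times: compound stimulation 90 min at 25 °C, detection 60 min; Measured by: luminescent beta-gal fragment complementation, chemiluminescent substrate; Read-out: APJ–arrestin association signal; Controls: DMSO vs Apelin-13 10 nM.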
UPR CHOP act = apoptotic UPR (CHOP) activation; 330,000 compounds, 0.34% hits; AID 449763; activation, % at 10 µM; CHO-CHOP luciferase reporter, luminescence; percent of tunicamycin response over DMSO baseline;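 active = at 10 µM dose, activation of 40% or more, normalized to positive control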;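 also: 100% = tunicamycin at 10 µg/mL and 0% = DMSO alone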
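measured by = luciferase luminescence | assay system = CHO-CHOP cells, stable luciferase reporter of PERK-eIF2a-CHOP signalling | amount = 500 reporter cells seeded per well | timing = 6 h compound exposure at 37 °C after overnight seeding | controls = positive tunicamycin 10 µg/mL, negative DMSO alone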
tim23-1 inh = tim23-1 yeast growth inhibition | inhibition, % at 20 µM | 330,000 compounds, 1.3% hits | S. cerevisiae tim23-1 growth, BacTiter-Glo luminescence, 24 h;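 active = growth inhibition of the mutant yeast at or above 50%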;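 also: temperature-sensitive mutant grown at 25 °C; plate controls were DMSO-treated mutant yeast for no effect and medium wells lacking yeast for full effect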
APJ antagonist = antagonists of human APJ apelin receptor; P35414; CHO-K1 APJ beta-arrestin complementation, luminescence; inhibition, % at 20 µM; 330,000 compounds, 0.32% hits;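 active = inhibition above about 40% at 20 µM, limit read from the data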;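 also: cells challenged with 10 nM apelin-13 agonist together with compound; plate controls were apelin-13 plus DMSO wells for no effect and DMSO wells lacking apelin-13 for full effect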
Mdm2 MdmX PPI = inhibitors of human Mdm2/MdmX interaction; inhibition, % at 8 µM; 330,000 compounds, 3% hits; SaOS-2 split-luciferase Mdm2/MdmX complementation, luminescence;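 active = inhibition of at least 50% at 8 µM in the primary screen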
UPR XBP1 act = activators of adaptive arm of unfolded protein response (XBP1); CHO-XBP1 luciferase reporter, IRE1-XBP1 UPR activation, luminescence; percent of tunicamycin response, DMSO as zero; activation, % at 20 µM; 330,000 compounds, 0.33% hits; AID 463104;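 active = versus positive control, 20 µM dose yields 30% or more activation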;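 also: 100% = tunicamycin at 10 µg/mL and 0% = DMSO only wells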
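Material: CHO-XBP1 cells stably carrying IRE1-XBP1-driven luciferase reporter / Amount: 1000 cells per well / Compound: 20 µM, 1% DMSO / Times: 6 h treatment, 37 °C / Detection: luciferase luminescence / Measure: % activation of reporter signal versus tunicamycin and DMSO controls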
Numbers without * were called inactive; x = no result given. This is a subset; count on the stated rates, not on these rows.

compound	EBI2 antag	UPR XBP1 act	APJ antagonist	APJ ag	Mdm2 MdmX PPI	UPR CHOP act	tim23-1 inh
NC(=O)c1c(NC(=O)c2ccc([N+](=O)[O-])o2)sc2c1CCCC2	8.3	0.6	21.7	-8.2	13.8	18.7	43.8
CCC1Nc2ncnc(N3CCOCC3)c2N(Cc2ccc(C)cc2)C1=O (stereo not given)	3.3	x	x	x	x	x	x
O=C(CSc1ncnc2c1cnn2-c1ccc(F)cc1)NC1CCCC1	-10.1	-3.2	-43.5	-0.6	7.5	-0.3	2.7
Cc1cccc(C)c1Nc1nnc(SCC(=O)NC(=O)c2cccn2C)s1	-8.5	-0.9	-0.6	3.2	-24.5	1.9	18.9
O=C(Nc1ccccc1)N1C(=O)C2(OCCO2)c2ccccc21	9.3	-1.0	-6.2	-12.7	3.9	-0.4	-7.0
Cc1ccc2nc(N3C(=O)CNC3=S)sc2c1	-3.0	3.5	11.0	-3.9	-24.2	10.5	63.7*
COc1cc2c(cc1OC)-c1cc(N3CCCc4ccccc43)nc(=O)n1CC2	-12.0	5.3	-9.4	3.4	18.0	-0.7	10.6
C=CCNC(=O)NC(=O)CSc1nnc(C(F)(F)F)n1C	-10.4	4.2	-2.6	-2.5	13.2	-0.3	18.9
CCC1(C)Cc2c(sc(NC(=S)NC(=O)c3ccccc3)c2C#N)CO1 (stereo not given)	3.5	2.7	25.4	-3.9	-0.5	1.2	-15.3
COc1ccc(-c2cc3ccccc3oc2=O)cc1NC(=S)NC(=O)c1ccc2c(c1)OCCO2	-0.7	198.5*	5.4	-3.3	87.5*	86.5*	-2.0
CCCCc1nc(N2CCOCC2)c(C#N)c2c1COC(C)(C)C2	11.2	-0.5	-6.9	3.8	4.5	0.3	16.3
Cc1cc(C)c(NC(=O)C2CCCN2CCOC(=O)c2cccc([N+](=O)[O-])c2)c(C)c1 (stereo not given)	8.7	-0.7	-55.3	-1.2	-28.3	-2.9	39.1
Oc1cccc2cc(-c3ccncc3)cnc12	11.5	x	x	x	x	x	x
O=C(OCC(=O)N1CCOCC1)c1cc(-c2ccccc2)nc2ccccc12	2.4	-2.2	13.4	-5.2	-8.3	-0.3	24.2
O=C(Nc1nnc(-c2ccco2)s1)c1ccccc1	-10.9	-5.6	-0.6	-0.6	-27.4	-1.5	16.3

Two of the compounds above, with each value named:
COc1cc2c(cc1OC)-c1cc(N3CCCc4ccccc43)nc(=O)n1CC2
  EBI2 antag: -12.0	UPR XBP1 act: 5.3	APJ antagonist: -9.4	APJ ag: 3.4	Mdm2 MdmX PPI: 18.0	UPR CHOP act: -0.7	tim23-1 inh: 10.6

C=CCNC(=O)NC(=O)CSc1nnc(C(F)(F)F)n1C
  EBI2 antag: -10.4	UPR XBP1 act: 4.2	APJ antagonist: -2.6	APJ ag: -2.5	Mdm2 MdmX PPI: 13.2	UPR CHOP act: -0.3	tim23-1 inh: 18.9

Remaining list, next part:
compound	EBI2 antag	UPR XBP1 act	APJ antagonist	APJ ag	Mdm2 MdmX PPI	UPR CHOP act	tim23-1 inh
Cc1ccc(NC(=O)C2CCCO2)cc1[N+](=O)[O-] (stereo not given)	-12.0	1.1	10.4	0.4	-9.6	3.1	7.8
O=C1C2C(C(=O)N1CCN1CCN(Cc3ccc([N+](=O)[O-])cc3)CC1)[C@H]1C=C[C@@H]2C1 (stereo not given in full)	-0.9	-2.4	-9.7	-0.1	27.0	-2.1	6.6
CC(C)(C)C(=O)COC(=O)c1cc(-c2cccnc2)nc2ccccc12	-7.0	-0.8	0.4	-2.0	14.2	-1.2	12.2
CC1(C(=O)Nc2ccc3c(c2)OCO3)CCN1Cc1cccc2c1OCO2 (stereo not given)	-6.3	x	x	x	x	x	x
O=C(NNS(=O)(=O)c1ccccc1)c1ccccc1-n1cccc1	-8.2	-4.4	9.0	-0.6	20.8	-0.6	8.0
O=C(Cc1ccccc1)N/N=C/C=C/c1ccccc1[N+](=O)[O-]	1.0	0.8	8.4	0.2	9.0	4.5	7.9
COc1cccc(C(=O)Nc2nnc(-c3ccc(Cl)cc3)o2)c1	-8.6	-0.1	-64.8	0.1	38.2	1.5	-26.3
C/C(=N\NC(=O)c1ccccc1[N+](=O)[O-])c1c(O)cc(C)oc1=O	-2.4	-0.4	-3.3	4.0	21.1	2.7	3.9
CC1CCN(c2nc3ccccc3nc2C(C#N)C(=O)OC2CCCCC2)CC1 (stereo not given)	24.1	0.5	17.0	-1.5	-6.9	1.1	4.4
Cc1ccc(C)c(NCCCCCCCC(=O)O)c1	-2.3	x	x	x	x	x	x
CCOC(=O)/C(=N\O)C1=NC(C)(C)Cc2ccccc21	-20.6	1.2	-4.7	-4.2	20.8	0.2	-2.1
c1ccc(-c2nc(CSc3n[nH]c(-c4cccs4)n3)cs2)cc1	-0.5	-0.4	2.1	-1.6	-4.0	2.1	39.3
N#CCCn1c(-c2nonc2NC(=O)c2ccccc2Cl)nc2ccccc21	10.4	4.9	2.2	-3.4	20.2	-0.4	-8.1
C[C@@H]1COc2cc(N(C)CCO)ccc2S(=O)(=O)N1	-9.9	x	x	x	x	x	x
CCCNC(=O)c1ccc(COc2ccc(C(C)(C)C)cc2)o1	-6.2	10.3	2.9	-1.6	10.4	6.0	11.4

A different layout for 4 compounds above:
> CC1CCN(c2nc3ccccc3nc2C(C#N)C(=O)OC2CCCCC2)CC1 (stereo not given)
  EBI2 antag: 24.1; UPR XBP1 act: 0.5; APJ antagonist: 17.0; APJ ag: -1.5; Mdm2 MdmX PPI: -6.9; UPR CHOP act: 1.1; tim23-1 inh: 4.4

> Cc1ccc(C)c(NCCCCCCCC(=O)O)c1
  EBI2 antag: -2.3; UPR XBP1 act: x; APJ antagonist: x; APJ ag: x; Mdm2 MdmX PPI: x; UPR CHOP act: x; tim23-1 inh: x

> CCOC(=O)/C(=N\O)C1=NC(C)(C)Cc2ccccc21
  EBI2 antag: -20.6; UPR XBP1 act: 1.2; APJ antagonist: -4.7; APJ ag: -4.2; Mdm2 MdmX PPI: 20.8; UPR CHOP act: 0.2; tim23-1 inh: -2.1

> c1ccc(-c2nc(CSc3n[nH]c(-c4cccs4)n3)cs2)cc1
  EBI2 antag: -0.5; UPR XBP1 act: -0.4; APJ antagonist: 2.1; APJ ag: -1.6; Mdm2 MdmX PPI: -4.0; UPR CHOP act: 2.1; tim23-1 inh: 39.3

(listing goes on)
compound	EBI2 antag	UPR XBP1 act	APJ antagonist	APJ ag	Mdm2 MdmX PPI	UPR CHOP act	tim23-1 inh
CCOC(=O)c1c(NC2OC(=O)c3c2ccc(OC)c3OC)sc(C(=O)OC(C)(C)C)c1C (stereo not given)	4.0	7.6	6.2	2.0	-35.7	6.9	24.0
CSc1cc(C)n(-c2ccccc2C)c(=S)c1C(C)=O	-22.8	-3.3	7.5	-3.2	15.9	0.1	-12.0
Fc1cccc(/C=N/Nc2ccc3ccccc3n2)c1	7.1	-6.7	-5.3	-1.2	-106.3	-2.8	23.0
CN(C)c1oc(/C=C/c2ccccc2)nc1C#N	15.5	-1.3	-11.2	-1.7	-129.8	2.9	20.6
COc1ccc(CN2C(=O)C(CC(C)C)Nc3ncnc(N4CCCCC4)c32)cc1 (stereo not given)	-15.6	1.9	12.8	-1.8	12.4	-0.3	29.6
Cc1cc(C)c(NC(=O)C2CCCN2CCOC(=O)c2ccccc2)c(C)c1 (stereo not given)	9.7	-1.1	7.1	-2.8	-1.1	-1.6	24.2
Cc1c(NC(=O)C(C)N(c2ccccc2)S(C)(=O)=O)c(=O)n(-c2ccccc2)n1C (stereo not given)	-14.3	-0.1	-12.5	0.9	-1.0	-0.7	-2.7
CCCn1c(C)cc(C(=O)COc2ccc(S(=O)(=O)N(CC)CC)cc2[N+](=O)[O-])c1C	-1.9	-2.5	-7.1	1.9	-23.8	0.1	37.0
O=C(CSc1nc(C2CC2)n(-c2ccccc2)n1)NCc1ccco1	6.0	-2.2	22.5	-1.8	23.1	0.4	23.7
CC(/C=C/c1ccc2c(c1)OCO2)=N\NC(=O)COc1ccccc1C	8.7	2.6	-10.4	-2.4	21.1	0.5	-0.8
CSCCC(Nc1ccc(S(=O)(=O)N2CCOCC2)cc1[N+](=O)[O-])C(=O)OCC(=O)NCC(C)C (stereo not given)	3.0	0.6	0.0	-1.8	2.7	-0.2	16.7
O=C1N(Cc2ccccc2)c2ccccc2C12OCCO2	9.8	-4.5	16.0	-0.3	-0.8	-1.5	2.5
O=C(N/N=C/c1ccoc1)c1ccccc1F	-2.6	-2.5	19.7	8.3	3.4	3.7	-0.5
CCCc1cc(-c2nc(N)ncc2-c2ccc3c(c2)OCCCO3)c(O)cc1OC	77.9*	3.7	20.7	-4.5	40.5	1.0	29.3
O=C(NNC(=O)c1ccccc1-n1cccc1)c1ccc(Cl)nc1	-1.8	1.4	18.3	-3.0	-24.2	-0.2	10.5

Continued.
compound	EBI2 antag	UPR XBP1 act	APJ antagonist	APJ ag	Mdm2 MdmX PPI	UPR CHOP act	tim23-1 inh
Cc1cc2oc(=O)cc(CN3CCN(S(=O)(=O)c4cccs4)CC3)c2cc1C	5.0	-1.6	-8.5	-1.9	15.2	1.7	13.1
Cc1ccc(-c2nn(-c3ccccc3)c3[nH]c(=O)c(CNCc4ccccc4)cc23)cc1	1.1	1.8	2.4	-5.0	52.4*	4.9	47.3
COc1ccc(Nc2nc(C)cc(C)n2)cc1Cl	-6.2	1.1	15.2	-3.3	1.4	4.9	25.3
CSc1nnc2c(n1)[nH]c1c(C)cccc12	-6.6	2.5	-1.1	0.6	5.0	1.1	8.5
COC(=O)[C@@H]1CC[C@@](C)(c2ccc(OC)cc2)C1(C)C	17.4	-0.1	3.6	1.3	-9.3	0.1	16.2
N#CC(C(=O)OC1CCCCC1)c1nc2ccccc2nc1N1CCOCC1 (stereo not given)	6.4	1.7	-10.8	-1.3	9.8	-2.2	-10.4
O=C(O)c1cc(Nc2cc(Cl)c3nonc3c2[N+](=O)[O-])ccc1O	2.9	1.2	7.1	0.1	-1.7	0.5	8.8
N#Cc1c(NC(=O)CSCC(=O)O)sc2c1CCCC2	-2.9	-0.5	19.1	-5.7	7.1	0.0	6.4
CCCCCCOC(=O)C(C#N)c1nc2ccccc2nc1N1CCCCC1 (stereo not given)	18.4	3.4	17.9	-3.6	-16.2	1.3	19.9
Cc1ccc(-c2csc3ncnc(N4CCN(S(=O)(=O)c5cccs5)CC4)c23)cc1	11.8	3.4	-2.9	-0.8	50.8*	0.1	21.0
Cc1cccc(OCC(=O)N/N=C\C=C\c2ccc3c(c2)OCO3)c1C	-0.3	0.2	-8.5	3.4	-19.2	-1.8	4.4
CC(=O)Nc1nonc1-c1nc2ccccc2n1CCC(C)C	-8.7	-2.7	19.4	-3.8	55.7*	-0.5	7.8
Cc1ccc(-c2csc(NC(=O)c3ccco3)n2)cc1C	1.1	5.1	-7.7	-1.8	-76.7	4.0	43.9
COc1ccccc1NC(=O)C1=C(C)Nc2nnnn2C1c1cccc(Br)c1 (stereo not given)	15.9	-1.0	5.9	-2.5	26.1	-0.3	15.0
CC(C)CCN1CCC(CN2CCNC(=O)C2=O)CC1	2.5	x	x	x	x	x	x
O=C(NNS(=O)(=O)c1ccccc1F)c1ccccc1-n1cccc1	-10.4	-1.5	0.9	2.3	27.5	-1.8	16.3
Cc1ccc(C(NC(=O)C(C)C)c2cc([N+](=O)[O-])c3cccnc3c2O)cc1 (stereo not given)	14.7	1.9	-5.2	-4.1	56.9*	-1.7	28.4
